TRPML1 blocker – human mucolipin-1 channel inhibition | TRPML1-inducible cells, Ca2+ dye fluorescence, FDSS; stronger effect = lower value; inhibition of EC80 agonist-evoked calcium signal | activity change, negative = inhibition, % (test concentration not listed) | hit rate 0.02% among 390,000; in the data active means activity change below about -50%; inconclusive means about -30% to -50%; inactive means above about -30%;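 further: stimulus is agonist 54-4 at its EC80 concentration; on the % scale 0 is the no-effect control and ±100 the full control effect; compound concentration not given in the record; the text of the record puts the active cut at -80%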
Target sequence (Q9GZU1 whole entry, looked up): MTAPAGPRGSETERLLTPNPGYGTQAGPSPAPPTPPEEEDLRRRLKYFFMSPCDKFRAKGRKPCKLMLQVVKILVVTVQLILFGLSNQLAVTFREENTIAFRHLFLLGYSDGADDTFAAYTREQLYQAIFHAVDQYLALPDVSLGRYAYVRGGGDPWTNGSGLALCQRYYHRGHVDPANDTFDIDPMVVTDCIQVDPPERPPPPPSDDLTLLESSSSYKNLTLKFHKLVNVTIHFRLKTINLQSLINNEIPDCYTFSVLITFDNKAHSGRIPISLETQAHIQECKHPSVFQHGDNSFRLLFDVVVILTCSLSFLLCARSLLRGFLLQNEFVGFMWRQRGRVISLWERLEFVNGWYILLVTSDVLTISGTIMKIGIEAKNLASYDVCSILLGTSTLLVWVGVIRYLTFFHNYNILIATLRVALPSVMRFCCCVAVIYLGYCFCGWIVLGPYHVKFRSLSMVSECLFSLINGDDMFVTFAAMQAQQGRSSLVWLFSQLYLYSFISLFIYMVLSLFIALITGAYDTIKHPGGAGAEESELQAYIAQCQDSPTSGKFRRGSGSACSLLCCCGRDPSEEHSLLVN
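TRPML1-DL cells, Tet-induced overnight (~16 h, 37 °C) at 1,500 cells/well, were loaded with Ca8 no-wash dye plus quencher for 45-90 min at room temperature. Compounds were pinned during FDSS kinetic reading; agonist 54-4 at EC80 (4 uM final) then added.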
TRPML1 agonist – agonists of human TRPML1 channel; Q9GZU1; TRPML1-expressing cells, Ca2+ dye fluorescence, FDSS; host cell line not named in the record; reference of the full effect not given here; activation, % (test concentration not listed); hit rate 0.12% among 410,000; AID 624414; in the data active = activation above about 50%; inconclusive = about 30% to 50%; inactive = below about 30%; further: 0% is about no effect; the text of the record puts the active cut at 80%
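Agonist activity was taken from a 110 s kinetic Ca2+ dye read on the FDSS after pinning compounds onto TRPML1-DL cells. The cells were seeded at 1,500/well with Tet inducer, incubated about 16 h, then dye-loaded at room temperature.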
PINK1 modulator – PINK1 expression modulation; PINK1 immunofluorescence, high-content cytometry, 24 h; Potency, µM (top dose mostly 76.6 µM), without a hit: at the highest dose activation (PINK1 increase), most hits filed as activators; hit rate 0.2% among 410,000; active = well fitted activation curve with a large enough effect; inconclusive = small, poorly fitted or top-dose-only effect; inactive = flat fitted curve, though single readings scatter; cell line not stated here;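 further: potency means the concentration at half of the fitted maximal effect; % of control where 0% means no effect; nearly all actives have a fitted effect of over 65% in size; a mitochondrial uncoupler was the plate control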
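Cells are seeded, rested 12 hours, then given compound at five concentrations or DMSO for 24 hours. After fixation, blocking and antibody staining, PINK1 amount and mitochondrial localization are scored; CCCP serves as control.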
Menin MLL FP FL – inhibitors of human menin-MLL interaction, wild-type MLL peptide. 290,000 tested, under 10 active. FP activity change, % at 61.4 µM. Fluorescence polarization, fluorescein-MLL peptide displacement from menin; inconclusive = falling polarisation curve, or a change in total fluorescence; inactive = total fluorescence flat and polarisation flat or rising; no compound was filed as active; the % refers to the polarisation; negative = inhibition;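 further: % of control where 0% means no effect; inhibitors lower the polarisation; unlabelled MLL peptide was the positive control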
TRPV1 potentiator – potentiators of human vanilloid receptor 1 (TRPV1) | Q8NER1 | TRPV1-expressing cells, Fluo-8 calcium influx, capsaicin EC20 potentiation; host cell line not named in the record; control for the full effect not named in the record | potentiation, % at 8.33 µM | hit rate 0.02% among 320,000; active means potentiation above 80%; inconclusive means 30% to 80%; inactive means below 30%; further: 0% is about no effect
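Cells expressing TRPV1 were dye-loaded with Fluo-8 and read kinetically: 10 s baseline, 3 min after compound (agonist portion), then 2 min after EC20 capsaicin (allosteric enhancer portion). Calcium-bound dye fluorescence at 480/520 nm.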
Sfp inh – Sfp phosphopantetheinyl transferase inhibition. Biochemical Sfp PPTase activity, qHTS. Potency, µM, for inactives: max response, negative = inhibition, most hits filed as inhibitors. hit rate 3.5% among 310,000. AID 1490; active means well fitted inhibition curve with a large enough effect; inconclusive means small, poorly fitted or top-dose-only effect, or another doubt; inactive means no such curve, though single readings can be large or run the other way;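 further: the enzyme is Sfp with the accession as filed and its product quenches rhodamine fluorescence; potency means the concentration at half of the fitted maximal effect; 0% = enzyme reaction without inhibitor and -100% = no enzyme wells; top concentration of the series not given in the record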
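With Hepes-Na pH 7.6 buffer containing 10 mM MgCl2, Sfp (15 nM) modified BHQ-2-YbbR (12.5 uM) using rhodamine-CoA (5 uM). Two reads 30 minutes apart at 525/598 nm yielded each well's rate.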
ClpP mod – qHTS Assay for Activators of ClpP; purified B. subtilis ClpP, FRET peptide cleavage, 20 min; Potency, µM (titrated, usually from 57.5 µM), inactives show top-dose activity change, negative = active; hit rate 1.9% among 340,000; active = well fitted falling curve with a large enough effect; inconclusive = small, poorly fitted or top-dose-only effect; inactive = no such curve, though single readings can be large or run the other way; further: potency means the concentration at half of the fitted maximal effect; the source files actives as falling curves though it sought activators and does not explain the sign; nearly all actives have a fitted effect of over 65% in size; many hits overshoot -100%
Target sequence (P80244 whole entry, looked up): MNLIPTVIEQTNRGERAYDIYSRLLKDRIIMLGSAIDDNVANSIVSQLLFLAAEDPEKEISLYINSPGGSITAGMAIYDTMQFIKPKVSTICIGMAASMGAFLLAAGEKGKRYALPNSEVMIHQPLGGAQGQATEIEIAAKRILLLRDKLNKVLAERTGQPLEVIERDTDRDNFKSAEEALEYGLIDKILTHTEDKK
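Purified B. subtilis ClpP, 10 microg/mL final in Tris/HCl pH8 with KCl, BSA, glycerol and Tween-20, cleaved an Abz/nitrotyrosine-quenched decapeptide. Fluorescence (ex 320, em 430) was read at 0 and 20 min at room temperature. Delta was normalized to 5.8 microM ADEP and DMSO/no-enzyme controls.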
An asterisk follows results filed as active; ? = inconclusive; / = not tested or not shown; & = joins results of further samples; [ ] = remark or other dose. Hits appear at their usual frequency; overall some 4.4% were active at least once.

SMILES	TRPML1 blocker	TRPML1 agonist	PINK1 modulator	Menin MLL FP FL	TRPV1 potentiator	Sfp inh	ClpP mod
CN(c1ccccc1)S(=O)(=O)c1cccc(C(=O)NC2CCCC2)c1	12	1.4	-0.1%	/	/	/	32µM*
CC(=O)Nc1ccc(SCC(=O)N(C)CC(=O)Nc2ccccc2Cl)cc1	1	0.3	-0.1%	/	/	/	-3.0%
OC[C@H]1O[C@@H](Oc2ccc(O)cc2)[C@H](O)[C@@H](O)[C@@H]1O	8	1.6	5.0%	/	/	/	0.4%
COC(=O)c1sc(NC(=O)C(C)C)c(C(=O)OC)c1C	-5	-0.5	0.7%	0.2	1	16%	-2.3%
O=C(c1ccco1)N1CCN(C(=O)c2cnn(-c3cccc(F)c3)c2C2CCNCC2)CC1	8&3	-1.0&1.2	-1.0%&2.4%	-3.0	-2	12%	0.5%&-2.1%
COc1ccc(S(=O)(=O)NC2(C(F)(F)F)N=C(c3ccccc3)NC2=O)cc1 (configuration not stated)	10	0.0	0.3%	2.0	4	18%	-2.9%
CCN(C(=O)Cn1c(=O)n(-c2cc(OC)c(OC)c(OC)c2)c(=O)c2ccccc21)c1cccc(C)c1	/	/	12%	-0.9	7	22%	1.3%
CC(C)[C@H](NC(=O)c1ccc(C(C)(C)C)cc1)C(=O)N1CCN(Cc2ccc3c(c2)OCO3)CC1	23	1.2	1.3%	/	/	/	/
CC(C)(C)C(=O)N(Cc1ccc(Cl)cc1)c1cnccn1	40	-0.4	2.3%	-2.2	11	5%	-1.9%
Cc1cc(=O)oc2c(C)c(OCC(=O)N3CC[C@@]4(O)CCCC[C@H]4C3)ccc12	/	/	0.1%	1.9	4	25%	4.8%
COC(=O)c1cc2c(ccn2-c2ccc(F)cc2)n1CC(=O)C(C)(C)C	-6	1.2	0.5%	2.7	-1	-9%	25µM*
Cn1nc(C(F)(F)F)c(-c2ccc(Br)cc2)c1NC(=O)Nc1ccc(F)cc1F	19	1.8	?	-0.1	-15	-14%	/
O=C(COc1ccc2c(c1)CCC2)N1CCN(c2ccccc2F)CC1	5	-1.5	1.2%	3.1	-10	2%	-1.6%
O=C(Nc1ccc(Br)cc1)c1cccc(-n2cnnn2)c1	13	-1.0	-0.5%	-4.7	15	7%	/
CC(C(=O)NC1CCCCC1)N1CCN(S(=O)(=O)c2cccs2)CC1 (configuration not stated)	33	-0.1	0.1%	/	9	/	-1.5%

Three entries out of the list, sorted by count of non-hydrogen atoms, descending.
SMILES	TRPML1 blocker	TRPML1 agonist	PINK1 modulator	Menin MLL FP FL	TRPV1 potentiator	Sfp inh	ClpP mod
Cn1nc(C(F)(F)F)c(-c2ccc(Br)cc2)c1NC(=O)Nc1ccc(F)cc1F	19	1.8	?	-0.1	-15	-14%	/
Cc1cc(=O)oc2c(C)c(OCC(=O)N3CC[C@@]4(O)CCCC[C@H]4C3)ccc12	/	/	0.1%	1.9	4	25%	4.8%
O=C(Nc1ccc(Br)cc1)c1cccc(-n2cnnn2)c1	13	-1.0	-0.5%	-4.7	15	7%	/

More structures.
SMILES	TRPML1 blocker	TRPML1 agonist	PINK1 modulator	Menin MLL FP FL	TRPV1 potentiator	Sfp inh	ClpP mod
Cc1c(NC(=S)NC(=O)c2cccc(Cl)c2)c(=O)n(-c2ccccc2)n1C	/	/	1.6%	-2.7	-2	-6%	-0.2%
N#CCCN(C(=O)Cn1nc(C(=O)O)c2ccccc2c1=O)c1ccccc1	-29	-0.3	-0.6%	-13	-3	-14%	/
C=CCC(NC(=O)Cc1ccccc1)C(=O)NCCC (configuration not stated)	-1	-0.1	-0.6%	/	2	/	-0.8%
O=C(c1ccc(Cl)cc1[N+](=O)[O-])N1CCc2ccccc2C1	19	0.0	-0.3%	3.7	-5	-8%	/
O=C(Oc1cccc(C(=O)N2CCOCC2)c1)c1ccc(Br)cc1	-11	-0.1	-0.7%[38.3 µM]	1.8	8	13%	-0.9%
CCc1ccc(CNC(=O)c2cc3c(C)nc4ccccc4c3o2)cc1	-1	0.2	?	-1.1	18	-2%	?
Cc1onc(-c2c(Cl)cccc2Cl)c1COC(=O)c1ccc(Cl)cc1	14	2.2	5.6%	-0.5	-3	?	0.3%
COc1cc(NC(=O)C2CC2C)c(C(=O)O)cc1OC (configuration not stated)	-17	-0.3	1.0%	-1.5	4	8%	?
CCOc1ccc(NC(=O)c2cc(CN3CCCC3)on2)cc1	3	1.8	0.7%	/	/	/	1.1%
O=C(Cn1c(=O)oc2cc(S(=O)(=O)N3CCCC3)ccc21)Nc1ccc(F)cc1F	13	0.1	-1.5%	/	/	/	1.4%
CCN1CCN(C(C)C(=O)NC2CCCCC2)CC1 (configuration not stated)	4	-0.5	-2.0%	14	-9	-17%	-2.1%
CCCN(CCC)c1nc2ccccc2n2c(C)nnc12	34	2.6	0.1%	1.2	-18	4%	-3.7%
CC(=O)c1c(C)[nH]c(C(=O)N2CCN(c3ncccn3)CC2)c1C	12	-0.1	-0.3%	-1.4	/	13%	-2.8%
Cc1ccc(-c2nn(-c3ccc(F)cc3)cc2C(=O)NC2CCC(O)CC2)cc1 (configuration not stated)	6	-0.5	-0.6%	/	-9	/	-0.6%
COc1ccc(Cl)c(-c2cc(C(=O)Nc3ccc(C)c(NS(C)(=O)=O)c3)[nH]n2)c1	/	-0.4	-0.2%	/	/	/	-0.5%
O=C(COC(=O)c1ncc(Cl)c(Cl)c1Cl)NC(=O)c1ccccc1	-9	-0.4	3.5%	/	-8	/	/
COC(=O)[C@H](CC(C)C)NC(=O)N1CCC(C)CC1	-3	-0.4	0.1%	-0.1	-4	21%	0.6%
CN(C)CCNC(=O)C1(O)c2cc(Br)ccc2NC(=O)N1c1ccc(Cl)cc1 (configuration not stated)	7	0.3	0.1%	3.7	-2	19%	/
O=C(Nc1cccnc1Cl)c1ccc(S(=O)(=O)N2CCCCCC2)cc1	3	1.8	6.2%[38.3 µM]	-0.4	-39	0%	0.2%
COc1ccc(NC(=O)CN2C(=O)NC3(CCCC3)C2=O)cc1OC	-10	0.0	6.0%	6.2	25	24%	/
COc1cccc(C2(O)C(=O)Nc3ccccc32)c1 (configuration not stated)	1	-0.7	-1.1%	2.3	15	-5%	/
CC(C)c1c(C(=O)N/N=C/c2ccncc2)nnn1-c1nonc1N	/	/	0.7%	7.4	-4	12%	2.2%
NC(=O)c1ccc(=O)n(Cc2ccc(Cl)cc2Cl)c1	-8	-0.5	-0.5%	2.7	3	5%	-0.4%
Cc1ccc(NC(=O)c2cc(NC(=O)c3ccco3)ccc2N2CCOCC2)cc1Cl	-11	0.9	16%	5.2	-4	11%	20%
C=CCC[C@H](CCCCC)OC(=O)/C=C/[C@H](O)[C@@H](O)C[C@H](O)CC=C	/	-1.1	4.9%	/	/	/	0.0%
FC(F)(F)Oc1ccc2c(c1)NC(c1ccncc1)=NC(c1cccs1)=N2	?	0.2	1.4%	/	/	/	-5.3%
COc1ccc2[nH]cc(CCNc3ccnc(-c4cccnc4)n3)c2c1	/	/	-0.3%	-8.5	/	-20%	/
C/C=C/C(=O)Nc1cccc(C2=NOC3(C2)C[C@@H](C(N)=O)N(C(=O)c2cc([N+](=O)[O-])cc([N+](=O)[O-])c2C)C3)c1 (some centres not stated)	4	0.8	-1.2%	2.9	26	10%	2.8%
CCOCCCNC(=O)C1CCN(c2nc3ccc(C)cc3[nH]2)CC1	-12	0.6	-0.9%	/	/	/	-1.3%
O=S(=O)(c1cccc(COc2c(Cl)cccc2Cl)c1)N1CCOCC1	65	6.1	0.1%	/	3	/	0.7%
Nc1nc(SCc2ccc(Cl)cc2Cl)n[nH]1	-12	1.9	1.6%	5.5	-7	20%	-2.1%
O=C1CN(C(=O)c2cccc(Br)c2)C(c2ccccc2)c2cc(Cl)ccc2N1 (configuration not stated)	-10	-0.5	-2.1%	/	/	/	1.2%
Cc1c(CCC(=O)NCCCCCC(=O)O)c(=O)oc2cc3occ(-c4ccccc4)c3cc12	-4	0.3	1.5%	-17	-7	-16%	-17%
CCOc1ncccc1C(=O)OCC(=O)c1ccccc1	-5	-0.2	-0.2%	-4.8	-4	13%	/
O=C1C(=O)c2ccccc2C(O)=C1c1cccc([N+](=O)[O-])c1	28	2.7	-1.7%	3.7	/	16%	/
CC(C)[C@H](NC(=O)c1ccccc1Cl)C(=O)OCC(=O)NC(=O)NCc1ccco1	10	0.9	0.5%	/	/	/	0.8%
O=C(Nc1ccc(Oc2ccc3c(c2)C(=O)N(c2ccc(O)cc2)C3=O)cc1)c1cccs1	-1	0.3	2.6%	/	29	-1%	-10%
CC1C(=O)N(Cc2cn(CCC3OCCO3)nn2)CCS(=O)(=O)N1Cc1ccc(-c2ccc(F)cc2)cc1 (configuration not stated)	10	-0.6	1.3%	/	/	/	1.3%
Cc1ccc(-c2cc(C(=O)Nc3cccnc3)[nH]n2)c(O)c1C	-12	-1.1	5.5%	-0.7	-10	10%	/
CC(CNC(=O)Cn1cnc2c(OCc3ccccc3)ncnc21)c1ccccc1 (configuration not stated)	3	-0.6	5.2%	/	/	/	-1.4%
O=C(NCCc1ccccc1)c1cc(=O)[nH]c2ccccc12	6	-0.6	-0.8%	3.4	2	11%	/
Clc1nc(-c2ccccc2)cc(-c2ccccc2)n1	31	3.8	3.3%	-1.9	-8	-2%	-3.9%
CC(OC(=O)CCc1nc2ccccc2c(=O)[nH]1)C(=O)NC1CCCC1 (configuration not stated)	-11	-0.2	2.4%	9.7	-22	-2%	-16%
Cn1c(=O)c([N+](=O)[O-])c(Oc2ccccc2)c2ccccc21	12	1.4	5.6%	-6.7	12	20µM*	/
COc1ccc(-c2nc(CS(=O)CC(=O)NCCc3ccc(C)cc3)c(C)o2)cc1OC (configuration not stated)	-14	2.7	1.2%	/	19	-8%	3.9%
COc1ccc(Cl)cc1C(=O)NC(=S)Nc1ccccc1N1CCOCC1	-4	0.1	4.2%	-2.9	-3	12%	-1.1%
COc1ccc(-c2cc(C(=O)Nc3sc4c(c3C(N)=O)CCCC4)no2)cc1	-14	0.0	2.1%	/	/	/	0.0%
O=C(O)C1(c2cccc(Cl)c2)CCC1	-2	-0.8	0.7%	-1.7	-1	12%	0.2%
O=C(CC(c1ccccc1)(c1ccccc1)c1ccccc1)N[C@@H](Cc1ccc(O)cc1)C(=O)O	6	-0.7	-0.6%	-1.5	24	32%	1.6%
CCc1ccc(CNC(=O)C(C)n2ccc3cc(S(=O)(=O)N4CCCCCC4)ccc32)cc1 (configuration not stated)	54	0.5	-1.7%	/	/	/	-12%
